Compound activity deposited in PubChem by National Center for Advancing Translational Sciences (NCATS).
2A firefly = FMDV 2A StopGo reporter, firefly signal. HEK cells with a luciferase reporter of 2A StopGo recoding. Potency, µM (top dose mostly 57.5 µM), without a hit: top-dose signal change, negative = less light. hit rate 0.23% among 120,000; active = well fitted falling curve with a large enough effect; inconclusive = small, poorly fitted or top-dose-only effect; inactive = no such curve, though single readings can be large or run the other way; note: nearly all actives have a fitted effect of over 60% in size; overnight with compound
2A Renilla = lowers the Renilla signal of an FMDV 2A StopGo reporter; HEK cells with a luciferase reporter of 2A StopGo recoding; Potency, µM (titrated, usually from 57.5 µM), inactives show at the highest dose signal change, negative = less light; hit rate 0.32% among 120,000; AID 1745857; active means well fitted falling curve with a large enough effect; inconclusive means small, poorly fitted or top-dose-only effect; inactive means no such curve, though single readings can be large or run the other way; note: nearly all actives have a fitted effect of over 55% in size; overnight with compound
* marks the source's active call; other numbers are inactive results; u = inconclusive; [ ] = remark or other dose. % is set by controls: 0 for no effect and ±100 for the full control effect; potency is the fitted concentration of half-maximal effect. The list is partial, so the mix of outcomes need not match the whole.

| SMILES | 2A firefly | 2A Renilla |
| --- | --- | --- |
| CN(Cc1ccc(F)c(F)c1)S(=O)(=O)c1ccc2c(c1)CCC2 | 6% | 110%[activator] |
| COc1ccc(NC(=O)c2nnn(Cc3ccc(Br)cc3F)c2N)c(OC)c1 | 18% | 15% |
| CCOC(=O)CNC(=O)c1cc(-c2ccccc2)nc2ccccc12 | 3% | -4% |
| Cc1nc2nc(NCc3ccccc3Cl)[nH]n2c(=O)c1Cc1ccccc1 | -14% | -9% |
| CCCn1c(=O)[nH]c(=O)c2c1nc(-c1ccc(CC)cc1)n2CCOC | 14% | 9% |
| Cc1ccc(C)c(NC(=O)CN2C(=O)CCc3ccccc32)c1 | u | -8% |
| COc1ccc(NS(=O)(=O)c2ccc3c(c2)CC(C)N3C(C)=O)c(OC)c1 (stereo not given) | u | 84%[activator] |
| CCC(C)NC(=O)COC(=O)c1ccc(C)c(C)c1 (stereo not given) | 12% | -6% |
| O=C(CCCc1c[nH]c2ccccc12)NCCC12CC3CC(CC(C3)C1)C2 | 18% | 4% |
| O=C(NCCc1ccc(Cl)cc1)c1ccc2nc(Cc3ccccc3)oc2c1 | -6% | 0% |
| CCOc1ccc2c(=O)c(Oc3ccc(C(=O)OC)cc3)c(C(F)(F)F)oc2c1 | 88%[activator] | 10% |
| CCC(C)Nc1nc(-c2ccccn2)nc2ccccc12 (stereo not given) | 0% | 0% |
| COc1ccc(OCCn2c(C(C)Oc3ccccc3)nc3ccccc32)cc1 (stereo not given) | 9% | 92%[activator] |
| CC(=O)c1ccc(NS(=O)(=O)c2c(C)nc3scc(C)n3c2=O)cc1 | 10% | 189%[activator] |
| Cc1ccc(S(=O)(=O)Nc2nc3n(n2)C(c2ccc(Cl)cc2)C=C(c2ccccc2)N3)cc1 (stereo not given) | 3% | 9% |
| CC(C)(C)c1ccc(NC(=O)CN2CCC(N3CCCC3)C2)cc1 (stereo not given) | -18% | -2% |
| O=C(NCCC1=CCCCC1)c1ccccc1C(F)(F)F | 134%[activator] | 21% |
| CC(=O)c1cccc(NC(=O)C(C)Oc2ccc3ccc(=O)oc3c2)c1 (stereo not given) | 10% | 3% |
| Cc1ccc(SCCNC(=S)Nc2ccc(F)cc2)cc1 | 15% | 140%[activator] |
| O=C(NC1CC1)c1cccc(NC(=O)c2cccc3cccnc23)c1 | 0% | 20% |
| COCCNC(=O)CCc1nc2cccnc2n1Cc1ccc(OC)cc1 | -6% | 2% |
| O=C(c1cn[nH]c1-c1ccc(F)cc1)N1CCCCC1 | 7% | -1% |
| CCCN(Cc1cccs1)C(=O)Nc1ccccc1OC | 4% | 3% |
| CC12CN3CC(C)(CN(C1)C3c1ccc(OCc3ccccc3)cc1)C2=O (stereo not given) | -6% | -10% |
| COc1ccc(NC(=O)c2oc3ccccc3c2NC(=O)Cc2cccs2)c(OC)c1 | -24% | -3% |
| O=C(O)CCNS(=O)(=O)c1ccc(Cl)c(C(=O)O)c1 | -3% | 10% |
| CCN(CC)CCOC(=O)C(C)(c1ccccc1)c1ccccc1 | 5%[11.5 µM] | -15% |
| COc1ccc(-c2cc3ccc(OCC(=O)OC(C)C)cc3oc2=O)cc1 | -11% | -4% |
| CCCN1CCN(c2nc3c(c(=O)[nH]c(=O)n3C)n2Cc2ccccc2)CC1 | -2% | -1% |
| COc1cccc(-c2nc(C(=O)N3CCC(C)CC3)nn2-c2ccccc2)c1 | 2% | 83%[activator] |

In another format: entries from further up.
Below each compound: 2A firefly, 2A Renilla
O=C(c1cn[nH]c1-c1ccc(F)cc1)N1CCCCC1
  7%, -1%
CN(Cc1ccc(F)c(F)c1)S(=O)(=O)c1ccc2c(c1)CCC2
  6%, 110%[activator]
COc1ccc(OCCn2c(C(C)Oc3ccccc3)nc3ccccc32)cc1 (stereo not given)
  9%, 92%[activator]
COc1ccc(NC(=O)c2nnn(Cc3ccc(Br)cc3F)c2N)c(OC)c1
  18%, 15%

More results follow.
| SMILES | 2A firefly | 2A Renilla |
| --- | --- | --- |
| COC(=O)c1ccc(NC(=O)CC2C(=O)N(c3cccc(C)c3)C(=O)N2Cc2ccco2)cc1 (stereo not given) | -12% | 47%[activator] |
| CCN(CC)S(=O)(=O)c1ccc(-c2nc(C#N)c(NCc3ccc4c(c3)OCO4)o2)cc1 | -8% | 46%[activator] |
| Cc1cccc(-c2nc3c4ccccc4nc(NCc4ccc(F)cc4)n3n2)c1 | 110%[activator] | -8% |
| CCC(C(=O)NCc1ccccc1Cl)n1c(=O)c2cccn2c2ccccc21 (stereo not given) | -19% | 17% |
| O=C(Nc1ccc(F)cc1)C1CCN(c2ncnc3c2sc2ncccc23)CC1 | 4% | -5% |
| O=C(OCc1ccc(Cl)c(Cl)c1)c1ccccc1Oc1ccccc1 | 0% | 12% |
| COc1ccc(Cl)cc1NC(=O)Cn1c(=O)n(Cc2ccco2)c(=O)c2cccnc21 | -14% | 13% |
| COCCNC(=S)NCCN(Cc1ccccc1)C(=S)NCCOC | 1% | 53%[activator] |
| O=C(c1ccccc1)N1N=C(c2ccc(F)cc2)CC1c1ccc2nccnc2c1 (stereo not given) | -2% | -15% |
| Cc1cccc(N2CCN(C(=O)c3noc4c3COc3ccc(C)cc3-4)CC2C)c1 (stereo not given) | -4% | -7% |
| Cc1ncsc1C(=O)NCc1ccccc1 | 1% | 0% |
| Cc1cccc(Oc2c(C(F)(F)F)oc3cc(OCC(=O)OCc4ccccc4)ccc3c2=O)c1 | 2% | -10% |
| O=C(Nc1ccc(OC(F)(F)F)cc1)c1noc2c1CCCC2 | 92%[activator] | 18% |
| Cc1ccc(NC(=O)c2sc3ccccc3c2C)cc1 | 100%[activator] | 27% |
| Oc1c(C(c2ccccc2)N2CCCC2)sc2nc(-c3ccco3)nn12 (stereo not given) | 0% | 56%[activator] |
| Cc1nc(-c2ccc(F)cc2)sc1CCNC(=O)c1cccs1 | 33%[activator] | u |
| CC(C)Oc1ccccc1NC(=O)CSc1nccn1C | 9% | -12% |
| Cc1ccc2nc3sc(C(=O)Nc4ccc(F)cc4)cc3cc2c1 | 44%[activator] | 12% |
| Cc1cc(C)cc(NC(=O)NCc2c(C)nn(C)c2C)c1 | 153%[activator] | 10% |
| Cn1c(=O)c2c(nc(N3CCCCC3)n2CCSc2nnnn2-c2ccccc2)n(C)c1=O | 1% | -3% |
| CCCCn1c(CCC(=O)NCc2ccc(OC)cc2)nc2c1c(=O)[nH]c(=O)n2CCCC | 10% | 7% |
| Cc1c(CC(=O)N2CCCCC2)c(=O)oc2cc(O)ccc12 | -1% | -8% |
| O=C(Nc1ccccc1Oc1ccccc1)c1cccc(CN2CCCC2=O)c1 | 17% | 17% |
| Cc1nc2cc(NC(=O)C(C)Oc3ccc(F)cc3)ccc2o1 (stereo not given) | 0% | 16% |
| Cc1nnc2c3ccccc3nc(Nc3cccc(O)c3)n12 | 4% | 4% |
| COc1cc(-c2c(NC(=O)c3ccco3)oc3ccc(Cl)cc3c2=O)cc(OC)c1OC | 14% | 14% |
| Cc1cc2ccccc2n1CC(=O)NCCCC(=O)O | 5% | -4% |
| Cc1cc(Br)ccc1NC(=O)CN(C)C(=O)CCc1ncc(-c2ccccc2F)o1 | 96%[activator] | 1% |
| Cc1ccc(-c2ccc(OC(=O)C3CCC(C)CC3)cc2)cc1 (stereo not given) | 44%[activator] | 2% |
| Cc1nnc(NC(=O)c2nc(SCc3ccccc3F)ncc2Cl)s1 | -2% | 79%[activator] |

Quoted at random: 7 entries already listed.
| SMILES | 2A firefly | 2A Renilla |
| --- | --- | --- |
| Cc1c(CC(=O)N2CCCCC2)c(=O)oc2cc(O)ccc12 | -1% | -8% |
| Cc1nc2cc(NC(=O)C(C)Oc3ccc(F)cc3)ccc2o1 (stereo not given) | 0% | 16% |
| O=C(Nc1ccc(OC(F)(F)F)cc1)c1noc2c1CCCC2 | 92%[activator] | 18% |
| Cc1nnc2c3ccccc3nc(Nc3cccc(O)c3)n12 | 4% | 4% |
| Cc1ncsc1C(=O)NCc1ccccc1 | 1% | 0% |
| Cc1ccc2nc3sc(C(=O)Nc4ccc(F)cc4)cc3cc2c1 | 44%[activator] | 12% |
| Oc1c(C(c2ccccc2)N2CCCC2)sc2nc(-c3ccco3)nn12 (stereo not given) | 0% | 56%[activator] |

(next part)
Compound,2A firefly,2A Renilla
CCc1nn(CC(=O)NCCc2ccc(OC)c(OC)c2)c(=O)c2cc3occc3n12,4%,21%
CCCCc1ccc(NC(=O)N2CCC3(CC2)OCCO3)cc1,0%,8%
CCCC(=O)N1c2nc(C(C)C)nn2C2(CCCCC2)[C@@H]2CCCC[C@@H]21,13%,9%
c1ccn2c(Nc3ccc4c(c3)OCCO4)c(-c3ccsc3)nc2c1,3%,-12%
O=C(CN1C(=O)CCc2cc(Br)ccc21)NC1CCCc2ccccc21 (stereo not given),15%,33%[activator]
COC(=O)Nc1ccc2ccccc2c1,217%[activator],13%
COc1ccc2c(C)c(CCC(=O)Nc3ccccc3N3CCCC3)c(=O)oc2c1,-3%,0%
CCNc1nc(SCC(=O)NC(=O)NC)nc2ccccc12,-5%,-10%
CCOCCc1nn2c(=O)cc(COC(=O)c3ccccc3NC(=O)C3CCCCC3)nc2s1,-17%,-11%
CCOC(=O)c1c(C)n(C)c2ccc(OC(C)=O)cc12,7%,18%
Cc1cc(C)c2c(N)c(C#N)sc2n1,0%,9%
Cc1ccc(-c2nc(N3CCOCC3)nc3ccccc23)cc1,-13%,-8%
CCOCCCNC(=O)c1ccc(-n2c(-c3ccccc3)cc3c2CCCCC3)cc1,19%,-15%
COc1cc2nc(SCC(=O)Nc3cccc(C)c3)n3nc(-c4ccccc4)nc3c2cc1OC,11%,-8%
COc1ccc(Cl)cc1-n1cc(-c2ccccc2)nc1SCC(=O)Nc1ccc(C)cc1,-20%,-11%
Cc1ccc(NC(=O)c2cccn(Cc3ccccc3C)c2=O)c(C)c1,-4%,-7%
COc1ccc(OC)c(NC(=O)Cn2ncc3c2-c2ccccc2OC3)c1,21%,17%
COc1ccc(NC(=O)CSc2nnc(-c3ccncc3)n2-n2cccc2)cc1,-5%,-10%
O=C(CNC(=O)c1nn(Cc2ccccc2)c(=O)c2ccccc12)Nc1ccc(F)c(F)c1F,7%,-7%
COc1ccccc1-n1cnnc1SCC(=O)c1ccc2c(c1)CCCC2,6%,8%
NC(=O)C1CCCCC1=O (stereo not given),1%,0%
CC1CCCCN1C(=O)CSc1nc(-c2ccccc2)no1 (stereo not given),162%[activator],-6%
COc1ccc2nc(NC(=O)Nc3ccc(C)cc3)sc2c1,74%[activator],-3%
CCn1nnc2cc(C(=O)Nc3nc(-c4ccc5c(c4)CC(=O)N5)cs3)ccc21,18%,9%
CCOc1ccc(N(CC)S(=O)(=O)N2CCCC(C(=O)Nc3ccc(NC(C)=O)cc3)C2)cc1 (stereo not given),-14%,-9%
COc1cc2[nH]c(C(=O)NCCCN(C)C)cc2c(OC)c1OC,70%[activator],54%[activator]
Cc1nn(-c2ccccc2)c2c1N(CC(=O)N1CCN(c3ccc(Cl)cc3)CC1)C(=O)CS2,-17%,-14%
Cc1cccc(N=Cc2ccccc2[N+](=O)[O-])c1,14%,-1%
CC(C)c1c(C(=O)NCc2cccnc2N2CCOCC2)cnn1-c1ccc(F)cc1,3%,-9%
CCOC(=O)c1ccc(Nc2nn3c(=O)c4ccccc4nc3s2)cc1,-11%,-7%
O=C(Nc1ccc(Cl)cc1C(=O)c1ccccc1)c1ccccc1Br,15%,118%[activator]
CC(=O)Nc1ccc(NC(=O)Cn2ccc3ccc(Cl)cc32)cc1,5%,18%
COC(=O)C1=C(N)OC2=C(C(=O)CCC2)C1c1ccc(Cl)cc1Cl (stereo not given),5%,1%
O=C(CCc1c[nH]c2ccccc12)NCCc1c[nH]c2ccccc12,12%,3%
CCC(C)(C)c1ccc(O)cc1,5%[11.5 µM],-3%
Cc1cc(C)c(NC(=O)C2CCN(S(=O)(=O)c3c(C)noc3/C=C/c3ccccc3F)CC2)c(C)c1,-17%,-1%
Cc1cc(C)c2cc(C(=O)N3CCCC(C)C3)[nH]c2c1C (stereo not given),45%[activator],259%[activator]
CCN(CC)c1ccc(NC(=O)c2cc(C)nc3c2c(C)nn3-c2ccc(C)cc2)c(C)c1,-17%,-11%
Cc1cccc(OCCCN)c1,135%[activator],-3%[1.06 µM]
CCCCCc1ccc(C(=O)Oc2cccc(OC(=O)c3ccc(CCCCC)cc3)c2)cc1,8%,-3%
COc1ccc(-c2c(NC(=O)CC(C)C)oc3c(C)cccc3c2=O)cc1,21%,9%
Cc1ccc(S(=O)(=O)N2CCc3cc(C(=O)NCCc4ccccc4)ccc32)cc1,36%[activator],13%
C/C(=N\NC(N)=O)C1=CC(C)(C)CCC1,0%,43%[activator]
C=CCNc1nc(C(=O)OCc2ccc(C#N)cc2F)cs1,-4%,-9%
CC(C)OCCCNC(=O)CN1C(=O)c2ccccc2Sc2ncccc21,2%,-1%
COc1cccc(NC(=O)CSC2=Nc3ccccc3C3=NC(CC(=O)NCc4ccccc4OC)C(=O)N23)c1 (stereo not given),65%[activator],68%[activator]
CNC(=O)C1CCCCN1C(=O)Cc1nc(-c2ccccc2)oc1C (stereo not given),-6%,-4%
O=C(CC1CCN(C(=O)c2ccc3nc(-c4ccccc4)oc3c2)CC1)NCCN1CCCCC1,39%[activator],-16%
O=C(/C=C/c1cccc2ccccc12)NC1CCCCC1,48%[activator],2%
CCNc1nc2ccccc2nc1C(C#N)S(=O)(=O)c1ccc(C)cc1 (stereo not given),8%,244%[activator]
Cc1cccc[n+]1CCCCCCCCCC[n+]1ccccc1C,u,u
